Assay outcomes deposited in PubChem by several laboratories.
Mtb hypoxia inh: Mtb hypoxia fluorescent reporter inhibition; M. tuberculosis hypoxia-regulated fluorescent reporter, fluorescence; fluorescence inhibition, % (no concentration beside the values); hit rate 0.1% among 300,000;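 active means 35 to 45% if threefold the growth effect, above 45% if 1.5-fold the growth effect; inactive means the rest, general growth blockers included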;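 further: wells of about 50 µL received 100 nL stock; 0% = vehicle wells and 100% = reference inhibitor wells; whole bacteria with a GFP reporter of the hypoxia response; strong numbers were not always called active; many hits fall short of the cut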
PrP 5UTR inh: inhibition of PrP 5' UTR reporter expression; cell-based PrP 5' UTR mRNA reporter, plate reader; inhibition, % (test concentration not listed); hit rate 0.35% among 340,000; AID 488862;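 active means every replicate at 50% or more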;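 further: 0 = median of the neutral control wells; tested in H4 reporter cells; numbers are from one replicate; inactives centre near -14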
BJeLR viability: kills HRASV12-expressing BJeLR cells | BJeLR (HRASV12) viability, CellTiter-Glo ATP luminescence, 48 h; reference of the scale not given here | inhibition, % (concentration not given with the values) | hit rate 0.17% among 300,000 | AID 1554;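 active means replicate mean above 50%; inconclusive means above 50% but judged a plate artefact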;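 further: 50 nL library stock added to about 25 µL; numbers are from one replicate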
Bead autofluor: counter-screen for toxin protease inhibitors: compound fluorescence; hit rate 3.1% among 360,000; fluorescence intensity (test concentration not listed); compound autofluorescence counterscreen, microsphere flow cytometry; active compounds read high;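 active means at least 3 SD above the mean of all compounds, about 16000 in these data; inconclusive means too few beads counted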;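 further: 100 nL of 1 mM stock went into each well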
ugtP null kill: compounds lethal to S. aureus RN4220 ugtP deletion mutant. hit rate 0.54% among 330,000. OD600 growth, 16 h; some inactives read as strong as hits. AID 1259309. growth inhibition, % (test concentration not listed);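 active means z-score under -3 and OD600 up to 0.15 on both plates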;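 further: plate controls were untreated wells for no effect and antibiotic for full effect; wells of about 80 µL received 100 nL stock; the first replicate is given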
RN4220 kill: kills Staphylococcus aureus RN4220 | S. aureus RN4220 growth, OD600, 16 h | inhibition, % (concentration not given with the values) | hit rate 0.33% among 330,000;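 active means z-score of -3 or lower and OD600 up to 0.18 on both plates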;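 further: plate controls were untreated cells for no effect and reference antibiotic for full effect; stock transfer was 100 nL into about 80 µL; one replicate is shown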
Mtb hypoxia inh growth: recorded beside Mtb hypoxia inh, whose call it bears; growth inhibition, %; measured here: M. tuberculosis growth (absorbance);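 0% = vehicle and 100% = reference antibiotic; read after six days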
Numbers without * were called inactive; ? = inconclusive; . = not tested or not shown.

nr	SMILES	Mtb hypoxia inh	Mtb hypoxia inh growth	PrP 5UTR inh	BJeLR viability	Bead autofluor	ugtP null kill	RN4220 kill
1	COc1ccc(NC(=O)c2cccc(Oc3ccc([N+](=O)[O-])cc3Cl)c2)cc1	11	6	-19	-13	2421	5	-9.1
2	O=C(NNC(=O)c1cccc(Cl)c1)NNC(=O)c1cccc(Cl)c1	3	8	-2	.	3756	2	3.4
3	Cc1cc(C)c(S(=O)(=O)Nc2ccccc2C(=O)N2CCCC2)c(C)c1	-5	-9	-18	8	.	3	6.3
4	CCOC(=O)N1CCN(C(=O)COC(=O)c2cc(Cl)cc(Cl)c2)CC1	8	12	0	.	3907	4	1.0
5	O=C(Nc1cscc1S(=O)(=O)c1ccccc1)c1ccccc1Cl	6	10	-42	4	6001	7	4.5
6	COc1ccc2[nH]c(O)c(N=NC(=O)c3ccc(NS(=O)(=O)c4cccs4)cc3)c2c1	-2	-2	-39	.	3361	-3	9.7
7	COc1ccc(N(CC(O)CN2CCOCC2)S(=O)(=O)c2ccccc2)cc1 (configuration not stated)	11	1	-25	2	3817	-5	2.8
8	O=c1[nH]c2cc(C(F)(F)F)ccc2n1-c1cc(C(F)(F)F)ccc1O	-1	0	-7	.	4604	-23	7.1
9	CCOC(=O)C1=C(O)/C(=C\c2sccc2C)N=C1C	9	11	-20	-3	2255	5	6.1
10	CC(=NO)C(C)(C)Nc1ccc(Cl)cc1	12	4	.	.	.	2	6.4
11	CCOc1cc(/C=N\NC(=O)c2c(C)nc3ccccn23)ccc1O	.	.	-31	2	4452	.	.
12	CC(=O)Nc1ccc(N2C(C(C)=O)=NN(c3ccc(Cl)cc3)C2c2sccc2C)cc1 (configuration not stated)	3	6	-20	4	12370	-6	-2.1
13	Cc1ccc(S(=O)(=O)c2c[nH]c3ccc(Cl)cc3c2=O)cc1	8	2	-19	-2	2914	-3	1.6
14	COc1ccc(COCCN2CCN(S(=O)(=O)c3ccccc3)CCC2=O)cc1	2	-1	-16	7	4308	-2	8.2
15	CC1=C(C#N)C(=O)NC(=O)/C1=C\c1ccc(-c2cc(C)c(C)cc2[N+](=O)[O-])o1	7	3	-13	-8	3967	12	8.1
16	COc1cccc(C(=O)Oc2c(Br)cc(Br)cc2C=NNC(=O)c2cc(C)[nH]n2)c1	3	5	.	.	.	-7	-5.7
17	CCCc1cc(=O)[nH]c(SCc2cccc(C)c2)n1	3	5	-9	8	23596*	-13	14
18	COC(=O)c1c(C)c(OC(=O)c2c(C)cc(O)c(C=O)c2O)cc(C)c1O	.	.	-19	-3	5736	-12	5.5
19	COc1ccccc1CC(=O)NC1CCCCCC1	2	8	-9	-5	4614	6	1.6
20	COc1cc(CNc2ccc(N3CCCCC3)cc2)ccc1OCC(=O)NC(C)(C)C	-4	-7	-9	3	3446	1	1.4
21	COc1ccc(-c2[nH]ncc2-c2ccc3c(c2)OCCO3)c(O)c1	.	.	27	1	2280	-2	4.9
22	Nc1nonc1-n1nnc(C(=O)NN=Cc2ccc(OCc3ccccc3)cc2)c1CN1CCCCC1	-6	-1	.	.	.	-7	2.6
23	Cn1c(/C(C#N)=N/O)nc2ccccc21	.	.	3	-5	3146	.	.
24	O=C(CSc1nnnn1Cc1ccccc1)N1CCN(c2ccccc2)CC1	8	3	-1	4	3501	1	6.4
25	COc1ccc(S(=O)(=O)n2oc(=O)cc2-c2ccccc2)cc1	.	.	0	-6	2961	8	1.3
26	CCOC(=O)CNC(=O)Cn1cnc2sc(C)c(S(=O)(=O)N3CCC(C)CC3)c2c1=O	11	9	-6	-7	9692	-6	4.4
27	C=CCc1cc(C=O)cc(OCC)c1OCc1ccc(Cl)cc1	4	6	-11	-8	2578	99*	-17
28	O=C1OC2(CCCCC2)OC(=O)C1=CNc1nc2ccccc2s1	2	14	-26	-3	5161	-10	5.4
29	Cc1ccc(O)c(-c2cc3ccccc3[nH]2)c1	-1	5	-49	-1	23551*	10	-6.5
30	CC(=O)Nc1ccc(NS(=O)(=O)c2cc(C)sc2C)cc1	-3	6	-14	-1	6132	-8	-3.0
31	CCCCc1c(O)c2ccccc2[nH]c1=O	-2	5	-17	-24	4168	-4	2.4
32	CC(=O)c1ccc(OCc2cc(C(=O)N3CCCCCCC3)no2)cc1	15	7	-24	5	?	6	3.9
33	Cc1cccc(-c2nc3ccccc3c3nncn23)c1	-9	18	8	-21	8530	-11	5.1
34	Cc1ccc(NC(=O)c2noc3c2CCc2ccccc2-3)cc1	6	2	-47	-1	4115	2	1.0
35	CC(C)(CO)NC12CC3CC(CC(C3)C1)C2	2	3	-15	.	3861	4	1.8
36	CC(C)COc1ccc(C(=O)Nc2ccc(NC(=O)c3ccco3)cc2)cc1	0	4	-10	-5	3386	7	-0.7
37	C/C(=C\c1ccc(Br)cc1)C(=O)c1c(C)cc(C)[nH]c1=O	-3	1	-67	2	3757	1	0.0
38	Cc1ccn2c(NC(=O)c3cccs3)c(-c3ccccc3)nc2c1	6	2	-12	-4	2359	4	7.4
39	CC(=O)N1N=C(c2ccccc2)CC1c1ccc2c(c1)OCO2 (configuration not stated)	3	-4	-26	-4	5995	6	2.3
40	Cc1cc(C)cc(NC(=O)Cn2ncn3c(cc4ccccc43)c2=O)c1	-5	-11	-32	5	7151	4	5.3
41	Cc1ccccc1OCC(=O)Nc1ccccc1-c1ccccc1	4	-4	-9	-2	3767	4	27
42	COc1ccc(Nc2cc(C)nc3ncnn23)c(OC)c1	.	.	-12	8	5374	0	5.0
43	Nc1cc(=O)nc(SCC(=O)Nc2cccc3ccccc23)n1CCc1ccccc1	-10	-1	-15	-11	4441	-10	-2.6
44	COc1ccc2cc(C(N)=O)c(=NNC(=O)c3ccco3)oc2c1	1	6	.	.	.	-11	8.9
45	CCN1C(=O)C2C(c3ccc(SC4CCCCC4)c(OC)c3)N[C@@](Cc3ccccc3)(C(=O)OC)C2C1=O (some centres not stated)	-1	4	.	.	.	2	-1.2
46	O=C(COC(=O)COc1cccc(F)c1)NCC1CCCCC1	6	3	15	.	2745	3	2.0
47	CN1CC(=O)NC1=NC(=O)C12CC3CC(CC(C3)C1)C2	-1	1	-10	2	2382	-6	-16
48	CCOC(=O)Cc1csc(NC(=O)NC2(C(F)(F)F)Oc3ccccc3O2)n1	1	8	-2	-2	16388*	-3	3.1
49	CC1(C)N([O-])C2=C(c3ccccc3C2=O)[N+](=O)C1(C)C	-3	11	4	-5	2581	-2	7.1
50	CN(Cc1cnccn1)C(=O)CC1C(=O)NCCN1CC(c1ccccc1)c1ccccc1 (configuration not stated)	12	7	1	11	3398	2	-1.1
51	Cc1ccc(C(=O)OCCc2sc[n+](Cc3ccccc3)c2C)cc1	22	10	-53	3	2920	9	1.6
52	Cc1ccc(NC(=O)C/C(N)=N/OC(=O)Nc2cccc(Cl)c2)cc1	24	45	-26	.	7545	1	6.3
53	C#CCNC(=O)C1=C[C@H](C2CCCCC2)C[C@H](OCCCCO)O1	.	.	3	-7	2914	.	.
54	Cc1onc(-c2ccccc2Cl)c1C(=O)OCC(=O)c1ccccc1	7	5	-2	3	11327	20	3.8
55	O=C(NC1(C(F)(F)F)N=C2SCCN2C1=O)c1cccnc1 (configuration not stated)	-3	3	-5	-8	2151	13	5.5
56	COC(=O)c1ccc(Cl)c(NC(=O)CN2CCOCC2)c1	3	8	-5	6	2852	-7	-8.6
57	O=C(CSc1nnc(CNC(=O)c2cccs2)o1)c1ccc(Cl)cc1	.	.	-11	9	4503	-2	6.8
58	COC(=O)c1sc2nc(C)nc(SCC(=O)N3CCC(C(=O)O)CC3)c2c1C	-1	16	-19	5	4808	4	3.2
59	Cc1ccc(S(=O)(=O)N2CCC(C(=O)NCc3ccccc3Cl)CC2)cc1	-5	3	-14	1	11035	-3	-2.3
60	COc1ccc(-c2nnc(C)c3nocc23)cc1	13	-7	4	7	4177	1	1.5

Carrying on:
nr	SMILES	Mtb hypoxia inh	Mtb hypoxia inh growth	PrP 5UTR inh	BJeLR viability	Bead autofluor	ugtP null kill	RN4220 kill
61	Cn1c(SCC(=O)NCc2ccc3c(c2)OCO3)nnc1-c1cccs1	9	12	-8	5	9284	-2	3.2
62	CC(C)(C)NC(=O)Cn1c(SCC(=O)NC2CCCC2)nc2ccccc21	9	7	-10	-1	3561	11	1.6
63	CCOC(=O)C1CCN(C(=O)COC(=O)c2oc3ccccc3c2C)CC1	10	-3	-14	1	6674	5	1.6
64	CC1=C(C(=O)OCc2ccccc2)N2C(=O)[C@@H](NC(=O)COc3ccccc3)[C@H]2SC1	0	3	-10	3	3913	8	11
65	CC(=O)Nc1sc(NN=Cc2ccccc2F)nc1-c1cccs1	4	5	.	.	.	-3	4.5
66	CCCCOc1ccc(C=NNC(=O)c2nnn(-c3nonc3N)c2C)cc1	5	4	.	.	.	-2	0.7
67	COc1cccc2cc(C(=O)NCc3ccc(F)cc3)c(=N)oc12	-2	5	-14	3	5522	0	4.1
68	O=C(COC(=O)CC1CC2CCC1C2)NCc1ccc(F)cc1 (configuration not stated)	18	16	-16	.	3423	7	2.0
69	CCOC(=O)N1CCC(N2CCN(Cc3ccc(C)o3)C(CCO)C2)CC1 (configuration not stated)	3	0	1	-2	3596	7	7.2
70	COc1ccc(-c2csc(NC(=O)COC(=O)Cc3ccc(Cl)cc3Cl)n2)cc1	0	2	.	8	.	-11	-13
71	Cc1ccnc(NC(=O)CCCOc2ccccc2)c1	.	.	-12	-4	2067	.	.
72	COc1cc(C[C@H](C)[C@H](C)Cc2ccc3c(c2)OCO3)ccc1O	.	.	-17	-8	3584	.	.
73	CCOc1ccc(NC(=O)CSc2nc3cccnc3n2CCOC)cc1	.	.	3	-3	4856	10	-4.1
74	COC(=O)[C@H](CCSC)NC(=O)Nc1ccc(C(C)C)cc1	6	10	-13	8	9999	-3	3.8
75	O=C(Nc1ccc(Cl)c(Cl)c1)c1ccc(Cn2c(=O)[nH]c3ccsc3c2=O)cc1	1	7	40	-16	4553	-7	-2.7
76	CC(=NNC(=O)c1sccc1C)c1cccnc1	4	1	.	.	.	6	2.9
77	Nc1ccccc1SC1CC(=O)N(c2ccccc2Cl)C1=O (configuration not stated)	.	.	-19	-9	4170	.	.
78	CNC(=O)c1cc(S(=O)(=O)NCc2ccncc2)ccc1OC	1	0	7	-6	5057	5	2.0
79	CC(=O)Nc1ccc(NC(=O)CSc2nnc(NC(=O)C3CC3)s2)cc1	17	7	-13	-2	5814	3	-2.1
80	CC(C)CCNC(=O)c1nnc(Cc2ccc(Cl)cc2)o1	2	1	-23	6	6008	-9	4.0
81	Cc1cc(C=O)c(C)n1C1CCCCC1	.	.	-7	8	2946	1	0.8
82	Cc1ccc(N(C)/N=C/c2ccc(Cl)cc2Cl)nn1	.	.	-23	-11	3602	.	.
